SmPrx2 inh: Schistosoma Mansoni Peroxiredoxins (Prx2); S. mansoni Prx2 activity coupled to TGR/GSH (TGR is thioredoxin glutathione reductase), NADPH fluorescence loss, qHTS; some inactives read as strong as hits; Potency, µM; Schistosoma mansoni peroxiredoxin 2 (Prx2); 65,000 tested, 0.07% active; active means full or partial inhibition curve with a strong effect at the top dose; inconclusive means weaker partial or single-point curve; inactive means no accepted curve; also: series up to 57 µM; many of its hits are not listed in these tables
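Purified S. mansoni TGR and Prx2 in pH 7.4 phosphate buffer with EDTA and Tween-20 were preincubated with compounds for 15 min. Further NADPH/GSH was added, then a 2.5 mM H2O2 aliquot initiated turnover, followed kinetically by NADPH fluorescence.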
LT uptake inh: qHTS Assay for Anthrax Lethal Toxin Internalization | 70,000 tested, 0.67% active | Cells, anthrax lethal toxin internalization, FRET ratio (460/530) | Potency, µM (titrated, usually from 40 µM), inactives show at the highest dose activity change, negative = inhibition, most hits filed as inhibitors; active = well fitted falling ratio curve with the 530 nm signal flat; inconclusive = other ratio curves, or a change in one channel alone; inactive = flat curves in the ratio and both channels; the % refers to the ratio; also: % is scaled to controls: 0 for no effect and ±100 for the full control effect; nearly all actives have a fitted effect of over 50% in size; tested in ME-180 cells; beta-lactamase reporter
Numbers without * were called inactive; ? = inconclusive; . = no result given; & = joins results of further samples; [ ] = dose if it differs, or a comment. Potency is read from the fitted curve at half-maximal effect. An excerpt (hit frequency here may not be typical).

Preview, 15 compounds:
SMILES	SmPrx2 inh	LT uptake inh
Brc1c(Br)c(Br)c2n[nH]nc2c1Br	.	?
COc1ccc(C(=O)N2CCOCC2)cc1S(=O)(=O)N1CCC(C)CC1	>57	-8%
COc1ccc(/C=C/N(CCc2ccc(OC)c(OC)c2)C(=O)C(F)(F)F)cc1	.	1%[8 µM]
O=S(=O)(NCc1ccccn1)c1cccc2cccnc12	>57	-2%
CCOc1ccc(-c2n[nH]c(C)c2-c2ccccc2OC)c(O)c1	.	?
Cc1nc2c3c(-c4ccccc4)c(-c4ccccc4)oc3ncn2n1	>57	11%
O=C(O)c1cc2cc(Cc3cccnc3)ccc2o1	>57	7%
COc1ccc(Cc2nc(-c3ccc(NC(=O)c4cccnc4)cc3)no2)cc1	>57	7%
CCOC(=O)c1[nH]c2ccc(OCC)cc2c1NC(=O)CN1CCCC(C)C1 (configuration not stated)	>57	6%
CC(C)(C)c1csc(NC(=O)c2cccs2)n1	>57	?
O=C1C2CC=CCC2C(=O)N1c1n[nH]c(Cc2ccccc2)n1 (configuration not stated)	>57	-8%
CCOC(=O)/C=C1\CC(=O)Nc2nonc2N1	.	-8%
Cc1cc(NC(=O)CSc2nnc3c(C)cc4cc5c(cc4n23)OCO5)no1	>57	8%
CCCn1c(=O)c(C(=O)Nc2c(C)n(C)n(-c3ccccc3)c2=O)c(O)c2ccccc21	>57	0%
Cn1nccc1C(=O)OCC(=O)Nc1nc(-c2ccccc2)cs1	>57	?

Main list, from the first entry:
SMILES	SmPrx2 inh	LT uptake inh
Brc1c(Br)c(Br)c2n[nH]nc2c1Br	.	?
COc1ccc(C(=O)N2CCOCC2)cc1S(=O)(=O)N1CCC(C)CC1	>57	-8%
COc1ccc(/C=C/N(CCc2ccc(OC)c(OC)c2)C(=O)C(F)(F)F)cc1	.	1%[8 µM]
O=S(=O)(NCc1ccccn1)c1cccc2cccnc12	>57	-2%
CCOc1ccc(-c2n[nH]c(C)c2-c2ccccc2OC)c(O)c1	.	?
Cc1nc2c3c(-c4ccccc4)c(-c4ccccc4)oc3ncn2n1	>57	11%
O=C(O)c1cc2cc(Cc3cccnc3)ccc2o1	>57	7%
COc1ccc(Cc2nc(-c3ccc(NC(=O)c4cccnc4)cc3)no2)cc1	>57	7%
CCOC(=O)c1[nH]c2ccc(OCC)cc2c1NC(=O)CN1CCCC(C)C1 (configuration not stated)	>57	6%
CC(C)(C)c1csc(NC(=O)c2cccs2)n1	>57	?
O=C1C2CC=CCC2C(=O)N1c1n[nH]c(Cc2ccccc2)n1 (configuration not stated)	>57	-8%
CCOC(=O)/C=C1\CC(=O)Nc2nonc2N1	.	-8%
Cc1cc(NC(=O)CSc2nnc3c(C)cc4cc5c(cc4n23)OCO5)no1	>57	8%
CCCn1c(=O)c(C(=O)Nc2c(C)n(C)n(-c3ccccc3)c2=O)c(O)c2ccccc21	>57	0%
Cn1nccc1C(=O)OCC(=O)Nc1nc(-c2ccccc2)cs1	>57	?
Cc1coc2cc3oc(=O)c4c(c3cc12)CCC4	>57	4%
O=C(NCCCN1CCN(c2ccccc2F)CC1)C1CCCN(S(=O)(=O)c2cnc[nH]2)C1 (configuration not stated)	.	-2%
CCOc1ccc(-n2c(SCC(=O)Nc3ccc4c(c3)OCCO4)nc3c(c2=O)SCC3)cc1	>57	5%
O=C(CSc1nnc(-c2ccc(Cl)s2)o1)N1CCc2ccccc21	>57	-7%
CO[C@H]1COC(=O)C/C=C\[C@H](C)[C@@H](OC)COC(=O)C/C=C\[C@@H]1C	.	-1%[8 µM]
CC(C)CNS(=O)(=O)c1ccc(CCC(=O)N2CCN(Cc3ccc4c(c3)OCO4)CC2)cc1	>57	?
Cc1ccc(-c2nc(C#N)c(N3CCCCC3)o2)cc1	>57	-21%
CCCCN(C)C(=O)Cn1cnc2sc(C)cc2c1=O	>57	9%
Cc1cc(S(=O)(=O)NCC(C)C)ccc1OCC(=O)N1CCN(Cc2ccccc2)CC1	.	17%
COc1ccc(CCN(C)Cc2c(F)cccc2F)cc1OC	>57	-18%
Further results follow.
SMILES	SmPrx2 inh	LT uptake inh
O=C(NCC(=O)N(CCc1ccccc1)C(C(=O)NC1CCCC1)c1cccnc1)c1ccco1 (configuration not stated)	>57	2%
CCCC(C)c1nnc(NC(=O)C2CCCO2)s1 (configuration not stated)	>57	-9%
Cc1ccc(S(=O)(=O)c2c(N)n(C)c3nc4ccccc4nc23)cc1	>57	?
COc1cccc(C2C(C#N)=C(N)OC(C(C)(C)C)=C2C#N)c1 (configuration not stated)	>57	-11%
CCCCCCOC(=O)c1ccccc1N	.	-17%
CN1CCN(C(c2cccc(C(F)(F)F)c2)c2nnnn2Cc2ccccc2)CC1 (configuration not stated)	>57	?
Cc1cccc(NC(=O)C(NS(=O)(=O)c2ccc3c(c2)CCC(=O)N3)c2ccccc2)n1 (configuration not stated)	>57	-7%
CCOC(=O)C1=C(C)NC(C)=C(C(=O)OCC)C1c1cc2ccc(C)cc2[nH]c1=O	>57	?
Cc1c(NC(=O)CSc2ccccc2C(=O)Nc2cccnc2)c(=O)n(-c2ccccc2)n1C	>57	-15%
Cc1nc2cnc(N3CCOCC3)nc2n(C[C@H]2CCCO2)c1=O	>57	-6%
Cc1ccn2cc(-c3ccc(S(=O)(=O)N4CCOCC4)cc3)nc2c1	.	8%
CC(Sc1ccccc1)C(=O)Nc1ccc(S(=O)(=O)N2CCOCC2)cc1 (configuration not stated)	>57	-9%
COc1ccc(S(=O)(=O)N2CCC(C(=O)N3CCOCC3)CC2)cc1	>57	23%
CSc1ccccc1C(=O)N1CCOCC1	>57	-17%
CC1SC2(CN3CCC2CC3)NC1=O (configuration not stated)	.	-5%
O=C(c1c[nH]c2ccc(S(=O)(=O)N3CCOCC3)cc2c1=O)N1CCN(c2ccccn2)CC1	>57	8%
CCCCCn1c(CN2CCN(Cc3ccccc3)CC2)nc2c1c(=O)n(C)c(=O)n2C	>57	?
CCCn1c(C(C)NC(C)=O)nc2ccccc21 (configuration not stated)	>57	-2%
CC1CCc2nc(NC(=O)C3CCCO3)sc2C1 (configuration not stated)	>57	-1%
CC(C)CO	.	-3%
CC(=C1C(=O)c2ccccc2C1=O)N1CCc2ccccc2C1	>57	9%
O=C(c1cccs1)c1coc2ccc(O)c(CN3CCOCC3)c12	>57	3%
O=C(O)c1cccc(S(=O)(=O)NCCO)c1	>57	-1%[8 µM]
CCOC(=O)c1c(C)c(C(=O)N2CCC3(CC2)OCCO3)c(C)n1CC	>57	6%
O=C1c2ccccc2C(O)(O)[C@@]1(O)[C@]1(O)C(=O)c2ccccc2C1(O)O	?	?
(next part)
SMILES	SmPrx2 inh	LT uptake inh
CSCC[C@H](NC(=O)OC(C)(C)C)c1nnc(SCc2ccccc2)o1	>57	?
CN(Cc1ccccc1)c1nc2c(c(=O)[nH]c(=O)n2C)n1CCCSc1ncccn1	>57	.
CCN1CCCC1CN(Cc1cc2cc(OC)ccc2[nH]c1=O)C(=O)NCc1ccccc1 (configuration not stated)	>57	4%
Cc1nc2cnc(N(C)C)nc2n(Cc2ccc(F)cc2)c1=O	>57	6%
COc1ccc(C2C3=C(Nc4ncnn42)c2ccccc2CCC3)cc1 (configuration not stated)	>57	-20%
CC1CN(S(=O)(=O)c2ccc(C(=O)Nc3sc4c(c3C(N)=O)CCN(C)C4)cc2)CC(C)O1 (configuration not stated)	>57	?
CCOC(=O)c1ccc(CNC(=O)c2cc(C(C)(C)C)oc2C)o1	>57	-12%
COCC(=O)Nc1nnc(COc2ccccc2)s1	>57	-1%
O=C(CN1C2=NCCN2c2ccccc21)c1ccco1	>57	-9%
CCN(CC)c1ccc(NC(=O)Nc2ccc(C(C)=O)cc2)cc1	>57	-12%
Cc1cccc(N2CCN(C(=O)CCCn3c(=S)[nH]c4cc5c(cc4c3=O)OCO5)CC2)c1C	>57	?
COc1ccc(C2CC(=O)N3C(=C2C#N)SCC3(O)c2ccccc2)cc1 (configuration not stated)	>57	.
CS(=O)(=O)c1nc(-c2ccccc2)cc(C(F)(F)F)n1	>57	?
CCN(CC)S(=O)(=O)c1cccc(-c2nnc(SCC#N)n2Cc2ccccc2)c1	>57	-7%
O=C(O)C1=CCCN(CCON=C(c2ccccc2)c2ccccc2)C1	>57&>57	?
C=CCOc1ccc(/C(O)=C2/C(=O)C(=O)N(CCN3CCOCC3)C2c2ccc(C)cc2)cc1 (configuration not stated)	>57	?
COc1ccc(NC(=O)c2cc(OC)c(OC)c(OC)c2)cn1	>57	.
COc1ccc(C(=O)N(CN2CCCC2=O)c2ccccc2OC)cc1OC	>57	-13%
Cn1nc(C(=O)N2CCN(S(=O)(=O)c3ccccc3)CC2)c2ccccc2c1=O	>57	17%
Cc1nc(N2CCN(Cc3ccccc3)CC2)[nH]c(=O)c1C	>57	-14%
CCNC(=O)NCCc1c[nH]c2ccc(Cl)cc12	>57	-8%
CCc1nnc(NC(=O)CSc2nnc(-c3ccoc3C)n2-c2ccc(C)cc2)s1	>57	-9%
CCC1(C)CC(c2csc(N)n2)CCO1 (configuration not stated)	>57	5%
COc1ccc(-c2cc(C(=O)N3CC4(C)CC3CC(C)(C)C4)no2)cc1OC (configuration not stated)	>57	-8%
CCC(C)NC(=O)CN1C(=O)CC(C)(C)S(=O)(=O)c2ccccc21 (configuration not stated)	>57	0%

Complete entries, looked up by structure. Screens in order: SmPrx2 inh	LT uptake inh
Listed for Cc1nc(N2CCN(Cc3ccccc3)CC2)[nH]c(=O)c1C = >57	-14%
Listed for CCC1(C)CC(c2csc(N)n2)CCO1 (configuration not stated) = >57	5%

Continuation:
SMILES	SmPrx2 inh	LT uptake inh
CCOc1ccc(CCNC(=O)C2CCN(S(=O)(=O)N3CCOCC3)CC2)cc1OCC	>57	-6%
Cn1c(SCc2nc3ccccc3s2)nnc1-c1cccs1	>57	-6%
COC(=O)c1ccccc1NC(=O)CNC(=O)c1ccco1	>57	?
CC1CCc2nn(CC(=O)NCc3ccco3)cc2C1 (configuration not stated)	>57	0%
COc1ccccc1-n1c(SCC(=O)Nc2ccccc2F)nc2[nH]ncc2c1=O	.	5%
CN1C(C)(C)CC(NC(=O)CCC(=O)NC2CC(C)(C)N(C)C(C)(C)C2)CC1(C)C	.	-7%
O=C(c1ccncc1)N1CCC2(CCN(Cc3ccncc3)CC2)CC1	>57	9%
COC(=O)CSc1nc2ccc(NC(C)=O)cc2s1	>57	-6%
Cc1cc(NC(=O)C23CCC(C)(c4nc5cc(Cl)c(Cl)cc5nc42)C3(C)C)no1 (configuration not stated)	>57	?
CCC(=O)Nc1ccc(N2CCN(C(=O)c3ccccc3C)CC2)cc1	>57	0%
CC(=O)[C@@]1(O)Cc2c(O)c3c(c(O)c2[C@H](O[C@H]2C[C@H](N)[C@H](O)[C@H](C)O2)C1)C(=O)c1ccccc1C3=O	>57	?
Cc1cccc(NC(=O)c2ccc(S(=O)(=O)N(C)C)cc2)c1	>57	-10%
Cc1onc(-c2ccccc2Cl)c1C(=O)Nc1cccc(-c2cn3cccnc3n2)c1	>57	-5%
COc1ccc(C2/C(=C(\O)c3ccc4c(c3)OCCO4)C(=O)C(=O)N2CCCN(C)C)c(OC)c1 (configuration not stated)	>57	7%
CCCC(=O)Nc1ccc(NC(=O)c2ccccc2Cl)nc1	>57	-11%
COC(=O)c1ccc(CSc2nnc(SCc3ccc(C(=O)OC)o3)s2)o1	>57	-4%
CC(=O)Nc1nonc1NC(=O)CSc1ncn[nH]1	>57	6%
Cc1ccc(S(=O)(=O)NCc2cn3ccsc3n2)c(C)c1	>57	4%
COc1ccccc1C(=O)n1nc(-c2ccc(Cl)cc2)nc1N	>57	-18%
COCCNC(=O)c1cc2c(-c3ccccc3F)nn(C)c2s1	>57	23%
Cc1cc(Cl)ccc1OCCCC(N)=O	>57	10%
Cc1ccc(C2CC(=O)N3CN(Cc4ccco4)CSC3=C2C#N)cc1 (configuration not stated)	>57	-3%
Cc1nc2ccccc2c2oc(C(=O)NCc3ccc4c(c3)OCO4)cc12	>57	?
O=C(NCc1ccccn1)C1CCN(S(=O)(=O)c2cccs2)CC1	>57	-4%
Nc1ccc(-n2ccnc2)cc1	>57	3%
Additional results follow:
SMILES	SmPrx2 inh	LT uptake inh
O=C(c1ccco1)N1CCN(C2CC(=O)N(c3ccc4c(c3)OCO4)C2=O)CC1 (configuration not stated)	>57	8%
C[C@@H]1CC[C@@H]2C(=O)N3[C@@H](CC[C@@H](C)[C@@H]3c3ccc(-c4ccco4)cc3)C(=O)N2[C@H]1c1ccc(-c2ccco2)cc1	.	0%[8 µM]
Cn1ncc(Cl)c1C(=O)N1CCc2ccccc21	>57	-7%
CN(C)c1ccc(C2C3=C(CCCC3=O)OC3=C2C(=O)CCC3)cc1	>57	-6%
CCOC(=O)CSc1nnc(-c2ccco2)n1C	>57	4%
O=C(O)C1CC=CCC1C(=O)NCCc1ccccc1 (configuration not stated)	>57	3%
CCOC(=O)CCNC(=O)Nc1ccc2nc(C)n(Cc3ccccc3Cl)c(=O)c2c1	>57	?
N#Cc1nc(-c2cccs2)oc1NCC1CCCO1 (configuration not stated)	.	8%
O=C(CN1C(=O)c2cccc3cccc1c23)Nc1ccc(S(=O)(=O)N2CCOCC2)cc1	>57	-12%
NC(=O)NC(=O)Nc1ccccc1Cl	>57	0%
CC1(C)CC(=O)C(C#N)=C(NCCCO)C1	.	-2%
CCOc1ccc(-n2c(SCC(N)=O)nc3c([nH]c4ccccc43)c2=O)cc1	>57	-24%
COc1ccc2c(c1)CCc1c(C(=O)NCc3cccnc3)noc1-2	>57	9%
O=C(CCCN1C(=O)c2ccccc2C1=O)NCc1cccnc1	>57	4%

Screening results deposited in PubChem by National Center for Advancing Translational Sciences (NCATS).
